Ab BasE inh = blocks the Acinetobacter baumannii siderophore enzyme BasE. purified BasE, fluorescence polarization binding displacement. inhibition, % (test concentration not listed). actives 0.1% (n = 84,000);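 active means both replicates above 25% with normal brightness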;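 further: 0% = negative plate control signal and 100% = positive plate control signal; stock transfer was 100 nL into about 30 µL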
LANA-nucl inh = LANA-nucleosome interaction inhibition; AID 720717; actives 0.3% (n = 51,000); z-score (test concentration not listed); FITC-LANA1-23 / chicken nucleosome fluorescence polarization; active compounds read low;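 active means both repeat wells score below -2 in polarization z-score versus plate sample wells, excluding overly bright wells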;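 further: 100 nL library stock added to about 30 µL; numbers are from one replicate; some results filed as inactive read as strong as hits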
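test system = FITC-LANA peptide and chicken nucleosomes | amount = 240 nM purified chicken nucleosomes (480 nM peptide binding sites), final | reagent = 50 nM FITC-LANA1-23 probe | medium = TEN-BT buffer, pH 7.5 | doses = single compound addition by pin transfer, 100 nL per well | timing = 10–45 min, room temperature | detection = fluorescence polarization | repeats = duplicate plates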
* hit, by the source's call; nt = not tested or not shown; & = joins results of further samples. An excerpt; rates above refer to the full screens.

Results follow in this order: Ab BasE inh | LANA-nucl inh
COCC(C)NCc1ccccc1OC (stereo unspecified)
→ 1.3 | -0.39
CCOC(=O)c1cnc2ccc(C)cc2c1Nc1ccc(N2CCOCC2)cc1
→ 0.4 | nt
O=C(O)CCN1C(=O)C(=O)/C(=C(/O)c2ccccc2)C1c1ccccc1 (stereo unspecified)
→ -2.1 | nt
COc1ccc(-c2noc(N(C)CC(=O)Nc3ccccc3OC)n2)cc1
→ 0.3 | -0.37
CC(=O)Nc1ccc(S(=O)(=O)Nc2cc(C)nc(C)n2)cc1
→ 1.1 | -1.3
O=C(CCc1ccccc1O)N1CCN(c2ncccn2)CC1
→ 3.9 | nt
CCn1c(=O)cc(SCC(=O)Nc2cccc(C#N)c2)c2ccccc21
→ -1.3 | -2
CC1(C)C2CC=C(/C=N/NC(=O)Cc3cn4ccsc4n3)C1C2 (stereo unspecified)
→ 1.8 | nt
O=c1cnnc2sc(SCc3ccccc3)nn12
→ -0.5 | -1.1
CC1CN(Cc2c(F)cccc2Cl)CC(C)O1 (stereo unspecified)
→ nt | 0.44
O=C(Nn1cnc2ccccc2c1=O)c1ccccc1
→ 0.6 | nt
COc1ccc(-c2n[nH]c(=S)n2-c2ccccc2C)cc1OC
→ 1.2 | nt
CCc1ccc(N2CCCCn3c2nc2c3c(=O)n(CCc3ccccc3)c(=O)n2C)cc1
→ -5.0 | 1.2
CCC(=O)OCC(=O)Nc1nc2ccccc2s1
→ 0.5 | nt
NC(=O)OCC(O)COc1ccc(Cl)cc1 (stereo unspecified)
→ 1.4 | 0.37
NC(=N/c1nc2ccccc2o1)/N=C/c1c(O)[nH]c(=O)[nH]c1=O
→ 0.8 | nt
Nc1ccccc1S(=O)(=O)NCC(=O)O
→ -2.4 | 2.1
O=C1OCCC1Sc1nnc(-c2cccs2)o1 (stereo unspecified)
→ 1.3 | nt
CCN(CC)c1ccc(NS(=O)(=O)c2ccc(C)cc2)cc1
→ 3.1 | nt
C=CCNC(=O)CN1CCN(C)CC1
→ 3.9 | 0.44
O=c1c(Cl)c(O)cnn1C1CCCCC1
→ 3.1 | -0.32
CC(=O)n1c2ccccc2c2nc(Nc3ccccc3)sc21
→ -0.2 | -0.74
CSc1cccc(N2C(=O)C3CC=C(C)CC3C2=O)c1 (stereo unspecified)
→ -1.2 | nt
CCOC(=O)c1c(C)oc2nc[nH]c(=O)c12
→ 2.1 | nt
CCOCC(=O)OCc1cc(=O)oc2cc(C)c(Cl)cc12
→ 1.6 | nt
Cc1ccc2[nH]c(=O)c(CN(Cc3ccccc3)C(=O)N(C)C)cc2c1
→ 0.6 | -0.81
O=C(NCc1nc(-c2cccnc2)n[nH]1)Nc1ccc(Cl)cc1C(F)(F)F
→ 13 | 0.33
O=C(CSc1ncc(C(F)(F)F)cc1Cl)NCCN1C(=O)CSC1=O
→ 0.3 | nt
COc1ccc(C(=O)NCCSc2nnnn2-c2ccccc2)cc1
→ 0.2 | -1.5
CNC1=CC(=O)CC(c2ccccc2)C1 (stereo unspecified)
→ 1.5 | nt
CCN1CCN(C(=O)c2cc3c(=O)n(Cc4ccc(OC)cc4)ccc3nc2C)CC1
→ -0.6 | -0.69
O=C(COc1ccc2oc3c(c2c1)CCCC3)Oc1ccc(-c2nnco2)cc1
→ -0.6 | nt
Cc1nc(N)oc1C
→ 1.2 | nt
O=C(CCSc1ccccc1)NCCc1ccccc1
→ -0.1 | -0.024
Cc1ccc(S(=O)(=O)CC2CSc3nc(N)cc(=O)n32)cc1 (stereo unspecified)
→ 0.8 | -0.059
Cn1c(SCC(=O)Nc2ccccc2)nc2c(c1=O)SCC2
→ 2.3 | -0.3
CC1(C)OC2C(CO)OC(n3ncc(=O)[nH]c3=O)C2O1 (stereo unspecified)
→ -0.3 | -0.62
Cc1ccc(F)cc1NC(=O)[C@H](C)N1C(=O)C2CC=CCC2C1=O (stereo partly specified)
→ -0.6 | nt
N#CCOc1ccc(-c2ccccc2)cc1
→ -0.4 | 0.5
Cc1cccc(C)c1OCC(=O)Nn1c(=O)[nH]c2ccccc2c1=O
→ 2.0 | -0.75
COc1ccc2[nH]c(=O)c(C(c3nnnn3Cc3ccccc3)N3CCc4ccccc43)cc2c1 (stereo unspecified)
→ 1.5 | -0.012
CN1C(=O)CSC1=Nc1ccc(F)cc1
→ -0.2 | 0.23
COC(=O)CON1C(=O)c2ccccc2C1=O
→ -1.1 | 0.45
CC(NC(=O)OC(C)(C)C)c1ccccc1 (stereo unspecified)
→ 2.0 | -0.32
CCOC(=O)CC(c1ccc(N)cc1)n1c(C)ccc1C (stereo unspecified)
→ nt | -1
CC1CCCCN1C(=O)CN1C(=O)CC(c2ccccc2)=Nc2ccccc21 (stereo unspecified)
→ -0.5 | 0.31
CCN(CC)C(=S)SSC(=S)N(CC)CC
→ -1.3&-0.9 | -0.18&0.45&0.48&-0.89&-0.98
CN(C)S(=O)(=O)c1cccc(COc2ccc(C#N)cc2)c1
→ 1.8 | nt
CCOC(=O)C1=C(C)N(C)C(=S)N(C)C1c1ccc(OC)cc1 (stereo unspecified)
→ -2.2 | nt
Cc1ccc(-c2nnc(NC3CCCC3)s2)cc1
→ 2.9 | -0.26
CC1(C)NC(=O)N(CC(O)CN2C(=O)NC(C)(C)C2=O)C1=O
→ 1.7 | -1.1
CCc1c(C)c(C#N)c2nc3ccccc3n2c1NC1CCCC1
→ 3.4 | 0.84
CCCC(=O)N(CC)c1ccccc1C
→ 0.8 | -0.89
COc1cccc(NCc2nnc(SCC(=O)c3ccc[nH]3)n2C2CCCCC2)c1
→ -0.9 | nt
CC12CCC(=O)N1C(C(=O)OCc1nc3ccccc3c(=O)n1CC#N)CS2 (stereo unspecified)
→ -1.4 | nt
COc1cccc(CN2CCC(N3CCCCC3)CC2)c1
→ -3.4 | 1.8
CC1C(=O)OC(c2ccccc2)C(C)(C)C1=O (stereo unspecified)
→ 2.0 | -0.64
CN(C)S(=O)(=O)c1ccc(=O)n(CC(=O)N2CC(=O)Nc3ccccc32)c1
→ 0.3 | nt
CN(C)C(=S)Nc1ccc(Cc2ccncc2)cc1
→ 13 | -0.12
Cc1cccc(-n2c(=O)c3c4c(sc3n3c(C)nnc23)CCCC4)c1
→ 2.2 | -0.32

The results go on:
Results follow in this order: Ab BasE inh | LANA-nucl inh
C[C@H](NS(=O)(=O)c1cccc2nsnc12)C(=O)OCc1ccccc1
→ 2.3 | nt
CC(C)CC(=O)Nc1ccccc1C(F)(F)F
→ 0.3 | 0.14
O=C1OC2(O)c3ccccc3C(=O)N2c2ccccc21 (stereo unspecified)
→ -0.7 | 0.51
O=C1CN(c2ccc(OC(F)(F)F)cc2)C(=O)CN1Cc1ccc2c(c1)OCO2
→ 2.3 | 0.79
CCCC1(C)SC(NC(C)=O)=NN1C(C)=O (stereo unspecified)
→ 1.3 | -0.56
COc1ccc2oc(=O)c(C(=O)NCc3cccnc3)cc2c1
→ 1.4 | -0.11
Cc1cc(Cl)c(S(=O)(=O)Nc2ccccc2)cc1OCC(=O)Nc1nncs1
→ -0.7 | -0.094
O=C(O)C1CCCN1c1nc(C(F)(F)F)nc2ccccc12 (stereo unspecified)
→ 3.3 | -1.1
N#Cc1nc2c(-c3nc4ccccc4[nH]3)c(N)n(Cc3ccccc3)c2nc1C#N
→ -0.8 | nt
N#Cc1ccc(COC(=O)CSC2CCS(=O)(=O)C2)cc1 (stereo unspecified)
→ 1.2 | nt
Cc1cc(C)c(C#N)c(SCSCc2ccccc2)n1
→ 0.5 | nt
COc1ccc(CCNC(=O)C2CCCN(C(=O)N(C)C)C2)c(OC)c1 (stereo unspecified)
→ 0.8 | -0.53
Cc1cc(C(=O)N2CCC(Cc3ccccc3)CC2)c(C)o1
→ -3.4 | 2.3
CN(C)S(=O)(=O)c1ccc2oc(=S)[nH]c2c1
→ -1.1 | nt
Cc1ccc(C)c(-c2nnc(NC(=O)Cc3ccccc3)o2)c1
→ -1.1 | 0.073
COc1cccc(NC(=O)c2cccc(OC)c2)c1
→ -2.3 | -0.88
Cc1nc(C)c(C(=O)Nc2ccccc2)s1
→ -1.2 | -0.78
O=C(OCc1cc(=O)n2cc(Br)ccc2n1)c1ccc2c(=O)n3c(nc2c1)CCC3
→ 0.9 | nt
CCOC(=O)c1c(NC(=O)CSc2nnc(-c3ccco3)o2)sc(C)c1C
→ 1.5 | -0.5
CC(=O)NCCC(=O)Nc1nccs1
→ -1.6 | nt
CCN(CC)c1ccc(C(F)(F)F)cc1N
→ 0.8 | nt
CCOc1ccccc1NC(=O)CN1CCC(NC(=O)Nc2ccccc2)CC1
→ 1.6 | 0.58
Cc1ccc(NC(=O)Cn2c(=O)n(-c3ccc(CC(=O)NCc4ccco4)cc3)c(=O)c3ccccc32)cc1
→ 1.1 | 1.2
CN(C)c1ccc(C(CNC(=S)NCc2ccco2)c2c[nH]c3ccccc23)cc1 (stereo unspecified)
→ 0.4 | nt
O=C(NCCN1C(=O)C2C3C=CC(C3)C2C1=O)NCc1ccccc1 (stereo unspecified)
→ 2.5 | nt
CCOC(=O)C(C)N1CC(=O)N(c2ccccc2)C1=O (stereo unspecified)
→ 0.3 | -0.29
CC(C)C(=O)NCCCc1ccccc1
→ 1.6 | -0.1
Cc1ccc2[nH]c(=O)c(-c3nc4c(C)cccn4c3NCc3ccco3)cc2c1
→ 0.7 | -0.72
Cn1[nH]c2nc3[nH]n(C)c(=O)c3c(-c3ccccc3)c2c1=O
→ -0.2 | 1.1
CC(=O)Nc1ccc(C(=O)OC2CCCCC2=O)cc1 (stereo unspecified)
→ 1.0 | nt

Four entries drawn at random from the list so far:
Results follow in this order: Ab BasE inh | LANA-nucl inh
CCCC1(C)SC(NC(C)=O)=NN1C(C)=O (stereo unspecified)
→ 1.3 | -0.56
CN(C)S(=O)(=O)c1ccc2oc(=S)[nH]c2c1
→ -1.1 | nt
O=C1OC2(O)c3ccccc3C(=O)N2c2ccccc21 (stereo unspecified)
→ -0.7 | 0.51
Cc1ccc(NC(=O)Cn2c(=O)n(-c3ccc(CC(=O)NCc4ccco4)cc3)c(=O)c3ccccc32)cc1
→ 1.1 | 1.2

Next results:
| molecule | Ab BasE inh | LANA-nucl inh |
| --- | --- | --- |
| Cc1ccc(CNS(=O)(=O)c2cn(C)c(=O)n(C)c2=O)cc1 | 1.0 | 1 |
| CCn1c(=O)c(C(=O)Nc2nccs2)c(O)c2ccccc21 | -3.7 | 1.6 |
| Cc1nn2cnnc2c(C)c1CCC(=O)NCCCc1ccccc1 | -4.0 | 1.9 |
| Cc1ccc(-c2csc(-c3ccc(C(F)(F)F)cc3)n2)cc1 | 2.6 | nt |
| CCC(C)N=C1NS(=O)(=O)C(c2ccc(F)cc2)=C1C (stereo unspecified) | 0.6 | nt |
| Cn1c(=NC(=O)c2ccc(=O)n(Cc3ccccc3)n2)sc2ccccc21 | 0.6 | nt |
| Cc1c(/C=C(\C#N)C(=O)NCc2ccccc2)cc(C#N)n1C | 0.8 | nt |
| Cn1cccc1C(C#N)c1cccc(F)c1C#N (stereo unspecified) | nt | 0.75 |
| O=C(Nc1ccccc1C(F)(F)F)NC1CCCCC1 | 1.0 | nt |
| CC(OC(=O)C1COc2ccccc2O1)C(=O)c1ccccc1 (stereo unspecified) | 2.6 | nt |

Molecules listed so far that have a Cl atom (7):
| molecule | Ab BasE inh | LANA-nucl inh |
| --- | --- | --- |
| CC1CN(Cc2c(F)cccc2Cl)CC(C)O1 (stereo unspecified) | nt | 0.44 |
| NC(=O)OCC(O)COc1ccc(Cl)cc1 (stereo unspecified) | 1.4 | 0.37 |
| O=c1c(Cl)c(O)cnn1C1CCCCC1 | 3.1 | -0.32 |
| CCOCC(=O)OCc1cc(=O)oc2cc(C)c(Cl)cc12 | 1.6 | nt |
| O=C(NCc1nc(-c2cccnc2)n[nH]1)Nc1ccc(Cl)cc1C(F)(F)F | 13 | 0.33 |
| O=C(CSc1ncc(C(F)(F)F)cc1Cl)NCCN1C(=O)CSC1=O | 0.3 | nt |
| Cc1cc(Cl)c(S(=O)(=O)Nc2ccccc2)cc1OCC(=O)Nc1nncs1 | -0.7 | -0.094 |

(next part)
| molecule | Ab BasE inh | LANA-nucl inh |
| --- | --- | --- |
| CCN(C(=O)COc1ccccc1C(N)=O)c1ccccc1 | 0.7 | -0.82 |
| CCN1CCCC1CNc1nsc2ccccc12 (stereo unspecified) | -1.6 | nt |
| CCCNC(=S)Nc1cc(OC)cc(OC)c1 | 2.9 | -0.13 |
| C=CCn1c(SCC(=O)Nc2ccccc2)nnc1C(CC(C)C)NC(=O)c1cccs1 (stereo unspecified) | 1.5 | -0.94 |
| COc1ccc2cc([C@H](C)CO)ccc2c1 | -3.7 | 0.29&-0.61 |
| CS(=O)(=O)N(CC(O)Cn1c2ccccc2c2ccccc21)c1ccccc1 (stereo unspecified) | -1.2 | 0.82 |
| Nc1ccc(Oc2ncccn2)cc1 | nt | 0.46 |
| COc1ccc(/C=C2\SC(N)=NC2=O)cc1O | -6.8 | nt |
| CCN(Cc1ccccc1)C(=O)c1cc2cccnc2n(C)c1=O | 0.1 | 0.67 |
| NC(=O)Nc1ccc(C(=O)OCC(=O)Nc2ccc(F)cc2F)cc1 | 4.8 | nt |
| COCCN1C(=O)/C(=C\c2cc(OC)ccc2OC)C(C(=O)OC)=C1C | 0.4 | 0.14 |
| CCOc1ncccc1C(=O)NCCOc1ccc(C)cc1 | 1.1 | nt |
| O=C(Nc1ccnn1Cc1ccc(Br)cc1)[C@@H]1CCCN1C(=O)c1cccs1 | -1.5 | nt |
| Cc1ccc(C(C)C)cc1OCC(=O)N=c1sccn1C | 1.8 | nt |
| CCC(NC(=O)COc1ccc(-n2cnnn2)cc1)c1ccc(Br)cc1 (stereo unspecified) | 0.4 | nt |
